Source: PubChem BioAssay (several laboratories)
A1 inh: caspase 3/7 activation in MEF A1-2A-BIM cells, primary screen, A1 inhibitor project, cell-based, luminescence, HTS | Caspase-Glo 3/7 luminescence, 3 h; percent of clofoctol response, vehicle zero | caspase activation, % (no concentration beside the values) | actives 0.066% (n = 330,000) | AID 2462, 2010;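 active means over half of replicate activation scores above 10%, or exactly half above 10 with the replicate mean above 10; inconclusive means replicate mean below 10 yet half the replicates above 10; inactive means over half of replicates below 10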;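 further: wells of about 30 µL received 50 nL stock; many hits fall short of the cut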
E coli growth: E. coli growth inhibition, primary screen, OD600; Escherichia coli growth, 23 h; hits give low values; OD600 absorbance (test concentration not listed); actives 0.21% (n = 330,000); AID 1053175, 2014;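 active means OD600 absorbance below the run mean of sample wells minus 3.6 SD, in any replicate, cut at about 0.56 in these data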;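 further: stock transfer was 300 nL into about 60 µL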
UCH37 DUB inh: inhibitors of human UCH37 deubiquitinase, primary screen, biochemical, Ub-AMC cleavage, fluorescence. Ubiquitin carboxyl-terminal hydrolase isozyme L5 (Homo sapiens), Q9Y5K5. purified proteasome/UCH37. inhibition, % (test concentration not listed). actives 0.33% (n = 330,000). AID 588478, 2011;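 active means mean of two replicates above 20%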;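 further: 0% = compound-free wells with enzyme and 100% = wells lacking proteasome; stock transfer was 100 nL into about 20 µL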
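Test system – human UCH37 enzyme supplied as purified proteasome complex · Incubation – 30 min preincubation with enzyme, 25 min cleavage at room temperature · Detection – AMC fluorescence from Ub-AMC cleavage, excitation 355 nm, emission 460 nm · Benchmarks – no-proteasome wells (full inhibition) and compound-free wells (no inhibition)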
LANA-H2A inh: blockers of LANA interaction with H2A/H2B – biochemical, FP readout, HTS, primary screen | inhibition, % (no concentration beside the values) | cell-free LANA-H2A/H2B peptide, fluorescence polarization | actives 0.6% (n = 320,000) | Protein LANA1 (Human herpesvirus 8 type P (isolate GK18)), Q9QR71; in the data active means inhibition mostly above about 10%, no sharp cut-off; inactive means mostly below about 6.7%;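 further: stock transfer was 7.5 nL into about 10 µL; 0% = median of vehicle wells and 100% = median of positive control wells; one replicate is shown; the record names a cut of 25% in any replicate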
Target sequence (Q9QR71 whole entry, looked up): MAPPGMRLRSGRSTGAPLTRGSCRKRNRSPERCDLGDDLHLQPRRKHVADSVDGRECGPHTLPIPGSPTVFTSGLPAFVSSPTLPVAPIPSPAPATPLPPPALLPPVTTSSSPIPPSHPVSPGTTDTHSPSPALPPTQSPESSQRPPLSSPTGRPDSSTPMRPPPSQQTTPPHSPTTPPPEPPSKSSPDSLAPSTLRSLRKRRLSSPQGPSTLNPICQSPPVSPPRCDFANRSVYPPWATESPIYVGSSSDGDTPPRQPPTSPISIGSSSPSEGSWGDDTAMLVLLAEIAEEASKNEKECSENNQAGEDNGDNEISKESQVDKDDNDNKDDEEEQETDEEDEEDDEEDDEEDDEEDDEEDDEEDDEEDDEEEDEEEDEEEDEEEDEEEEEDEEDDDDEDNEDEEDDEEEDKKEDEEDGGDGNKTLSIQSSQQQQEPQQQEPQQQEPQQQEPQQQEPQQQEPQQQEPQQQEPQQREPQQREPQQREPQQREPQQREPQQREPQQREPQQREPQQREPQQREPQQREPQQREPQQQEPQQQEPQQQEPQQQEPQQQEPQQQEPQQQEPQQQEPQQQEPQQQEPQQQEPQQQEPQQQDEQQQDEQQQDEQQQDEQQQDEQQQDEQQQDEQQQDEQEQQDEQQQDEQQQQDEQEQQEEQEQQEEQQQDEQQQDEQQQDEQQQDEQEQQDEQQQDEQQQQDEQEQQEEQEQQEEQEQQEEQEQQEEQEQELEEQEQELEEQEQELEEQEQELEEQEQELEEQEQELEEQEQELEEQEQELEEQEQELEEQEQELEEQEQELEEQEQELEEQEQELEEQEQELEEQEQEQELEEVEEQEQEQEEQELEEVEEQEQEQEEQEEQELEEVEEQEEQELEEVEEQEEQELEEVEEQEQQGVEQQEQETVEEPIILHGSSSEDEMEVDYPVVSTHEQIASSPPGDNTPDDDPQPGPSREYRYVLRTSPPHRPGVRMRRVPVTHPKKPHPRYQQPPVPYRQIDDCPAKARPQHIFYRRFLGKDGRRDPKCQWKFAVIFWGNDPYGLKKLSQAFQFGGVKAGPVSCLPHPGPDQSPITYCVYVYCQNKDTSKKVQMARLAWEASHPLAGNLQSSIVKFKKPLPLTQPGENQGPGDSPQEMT
Beta2AR agonist: beta2AR agonists driving receptor internalization, primary screen, cell-based, FAP fluorogen, flow cytometry | Beta-2 adrenergic receptor (Homo sapiens), P07550 | Am2.2-beta2AR cells; reference of the scale not given here | response, % (test concentration not listed) | actives 0.43% (n = 340,000) | AID 504454, 2011;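 active means response above a set limit, near 3 SD of response in nonfluorescent compounds, cut at about 42% in these data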;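 further: stock transfer was 100 nL into about 11 µL; a reference agonist was the positive control; negative values mostly stem from fluorescent compounds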
Vif TR-FRET: inhibitors of Vif binding to APOBEC3G peptide, primary screen, biochemical, TR-FRET, GST-Vif 1-94, biotin-A3G peptide, dose response retest (AID 1117319). actives 0.57% (n = 260,000). inhibition, %; hits with a dose series show IC50 in µM. TR-FRET GST-Vif / biotin-A3G peptide binding; higher % means a stronger effect; test concentration not given here; strong numbers were not always called active. Virion infectivity factor (Human immunodeficiency virus type 1 group M subtype B (isolate …;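 active means above the screen mean plus three standard deviations and confirmed in dose response; inconclusive means results disagree or hit not tested in dose response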;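 further: Vif residues 1-94 fused to GST binding biotinylated APOBEC3G peptide 110-148; 0% = full assay without inhibitor and 100% = GST in place of GST-Vif; retest series ran down from 100 µM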
HNF4A DNA FP: change in binding of human HNF4A to DNA, primary screen, biochemical, fluorescence polarization, FITC-DNA; Hepatocyte nuclear factor 4-alpha (Homo sapiens), P41235; 1 h; activity change, % at 10 µM; actives 0.3% (n = 360,000); in the data active means activity change above about 30%, passing the limit was not always enough;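 further: controls were the assay level and a saturating level of protein; the project sought stronger binding though the title names inhibitors; some compounds called inactive have numbers as strong as hits; positive values seem to mean higher polarization but the record does not say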
* = called active by the depositor; u = inconclusive; x = not tested or not shown; & = joins results of further samples.

SMILES | A1 inh | E coli growth | UCH37 DUB inh | LANA-H2A inh | Beta2AR agonist | Vif TR-FRET | HNF4A DNA FP
O=C(Cn1cc(C(F)(F)F)cc(Cl)c1=O)Nc1cccc(Cl)c1 | 0.4 | 0.69 | -1.6 | 0.2 | -10 | x | 3.1
O=C(O)c1cn(Cc2ccccc2Cl)c2ccc(S(=O)(=O)N3CCOCC3)cc2c1=O | 1.0 | 0.71 | 0.7 | 1.9 | 2 | 0% | 2.8
CCOc1ccccc1N1CCN(C(=O)c2cccc(S(=O)(=O)N3CCOCC3)c2)CC1 | -0.2 | 0.69 | 2.4 | -5.0 | -3 | -7% | -1.9
COC(=O)c1cc(C(=O)OC)n(Cc2ccc(C)cc2)c1C | 1.7 | 0.71 | 4.4 | x | -10 | x | -13
COc1cccc(CN2CCN(Cc3ccon3)CC2CCO)c1 (stereo unspecified) | 0.7 | 0.68 | 2.2 | -5.2 | -3 | 4% | 1.1
COc1ccc(NC(=O)CSc2n[nH]c(CNc3cccc(C)c3)n2)cc1 | -1.0 | 0.62 | 2.8 | 1.4 | 18 | x | 3.3
CC1CN(c2oc(-c3ccco3)nc2S(=O)(=O)c2ccccc2)CC(C)O1 (stereo unspecified) | 0.1 | 0.73 | 4.8 | -1.5 | 21 | u | 0.1
Cn1c(=O)c2c(ncn2CC(=O)N2CCN(c3ccccc3F)CC2)n(C)c1=O | 0.0 | 0.68 | 3.8 | 3.5 | 0 | 4% | -2.6
CN(CCOC(=O)c1cccc(Br)c1)C(C)(C)C | 1.1 | 0.77 | -4.0 | 1.3 | 0 | 3% | 0.3
CN(C(=O)COC(=O)c1cccs1)c1c(N)n(Cc2ccccc2)c(=O)[nH]c1=O | 0.4 | 0.7 | 2.0 | -2.4 | -1 | -1% | -2.0
COc1ccc(C(=O)O/N=C(\N)c2ccccn2)cc1[N+](=O)[O-] | -3.9 | 0.65 | 1.9 | 0.6 | 8 | x | 1.6
Cc1ccc(S(=O)(=O)NC2c3cccc4cccc(c34)C2Sc2nc(C)cc(C)n2)cc1 (stereo unspecified) | 2.4 | 0.76 | 2.1 | 1.3 | -4 | 16% | -1.1
Cc1ccc(NC(=O)CCC(=O)O)cc1F | 0.2 | 0.76 | 2.7 | 4.9 | 2 | -3% | 1.1
Cc1ccc(NC(=O)/C=C/C(=O)O)c([N+](=O)[O-])c1 | u | 0.61 | 1.5 | 2.5 | 1 | x | -1.9
CC(Cl)C(=O)NNc1cccc(Cl)n1 (stereo unspecified) | 1.0 | 0.68 | 2.1 | -12 | -5 | u | 4.4
Cc1n[nH]c(C)c1Cc1ccc(C(=O)O)cc1 | 0.6 | 0.67 | 2.0 | 0.7 | -6 | 0% | -0.5
CC(=O)Nc1ccc(S(=O)(=O)NC2CC(=O)N(c3ccc(C)c(C)c3)C2)cc1 (stereo unspecified) | -0.7 | 0.63 | -2.0 | -0.6 | 5 | -8% | 4.2
CC(NCC(=O)Nc1ccccc1C(=O)NC1CC1)c1ccc(F)cc1F (stereo unspecified) | -0.7 | 0.67 | 3.9 | -0.4 | -11 | -2% | 1.8
NC(=O)c1ccc(NC(=O)CSc2nc3ccccc3c(=O)n2CCCN2CCOCC2)cc1 | -0.6 | 0.68 | 4.1 | -2.7 | 13 | 82% | 0.0
c1cncc(-c2cnc3ccccc3c2)c1 | -1.3 | 0.62 | 0.7 | -0.4 | -15 | x | 0.3
O=C(Nc1cc2nn(-c3ccccc3)nc2cc1Cl)c1ccco1 | -3.2 | 0.74 | -5.2 | 8.0 | -1 | 21% | -6.3
NC1=NC(=O)C(CC(=O)c2ccc(Cl)cc2)S1 (stereo unspecified) | u | 0.65 | 1.9 | x | -1 | x | -3.4
Cc1ccc(Cn2nc(C)c(NC(=O)C3CC3)c2C)cc1 | 1.4 | 0.7 | 1.5 | -0.4 | 4 | 1% | 2.4
CCCOc1ccc(N2CC(C(=O)NC(C)C)CC2=O)cc1 (stereo unspecified) | 1.4 | 0.69 | 4.1 | 2.0 | -3 | -5% | -4.4
CCOC(=O)C1CCCN(C(=S)Nc2cccc(Cl)c2C)C1 (stereo unspecified) | 0.2 | 0.64 | 0.1 | -5.0 | 2 | x | -0.3
CN(C)CCOC(=O)c1cccc(Br)c1 | 0.3 | 0.77 | 3.0 | -0.3 | 0 | 2% | -0.5
O=[N+]([O-])c1ccc(N2CCOCC2)c([N+](=O)[O-])c1 | x | 0.66 | 9.6 | x | -7 | 0% | 2.3
Cc1nc2nc(SCc3ccccc3)[nH]n2c(=O)c1CCC(C)C | 0.1 | 0.6 | -1.5 | -4.4 | 2 | x | -0.5
O=C(C(c1ccccc1)C(O)(c1ccccc1)c1ccccc1)N1CCOCC1 (stereo unspecified) | x | 0.72 | 1.9 | x | 7 | -6% | 3.4
NC(=O)C1CCN(c2nc(-c3ccc4ccccc4c3)cs2)CC1 | 0.1 | 0.63 | 0.3 | 0.1 | 2 | x | 1.4
S=c1[nH]nc(Nc2cccc3ccccc23)s1 | -0.4 | 0.69 | 3.7 | -1.1 | -4 | 7% | -1.3
O=C1CN(C(=S)NC(=O)c2ccccc2[N+](=O)[O-])CCN1 | 0.1 | 0.68 | -0.4 | -0.7 | -3 | 2% | 2.0
O=C(OC(C(=O)NC1CCCC1)c1ccccn1)c1cccs1 (stereo unspecified) | 0.4 | 0.67 | 1.1 | -1.3 | 2 | -4% | 6.1
NC(=O)c1cc2ccccc2o/c1=N/NC(=O)c1cccc(F)c1 | 0.0 | x | x | 0.0 | 4 | -4% | -2.8
COc1cccc2c(=O)c3ccoc3n(C)c12 | -1.1 | 0.66 | -175 | -3.4 | 11 | 15% | 4.2
CCOc1ccccc1N1CCN(c2nc3ccccc3nc2C(C#N)C(=O)OC)CC1 (stereo unspecified) | -0.1 | 0.78 | 0.0 | 1.5 | 14 | 11%&-1% | 1.3
COc1cc(CCC(=O)N2CCN(S(=O)(=O)c3ccc(C)c(C)c3)CC2)cc(OC)c1OC | -1.5 | 0.73 | -1.0 | 2.9 | 6 | -5%&-7% | 1.4
CN(C)c1ccc(NC(=O)CSc2nc3ccccc3c(=O)n2CC2CCCO2)cc1 (stereo unspecified) | -0.3 | 0.71 | 1.4 | 6.8 | -1 | 2% | 3.6
O=C(NCCc1ccco1)C(=O)NCC1OCCCN1S(=O)(=O)c1ccc(Cl)cc1 (stereo unspecified) | -0.8 | 0.71 | 2.0 | -3.8 | 4 | x | 0.6
CCOC(=O)Cc1csc(NC(=O)c2ccc(S(=O)(=O)N(CCOC)CCOC)cc2)n1 | -0.5 | 0.66 | 3.1 | 1.1 | 2 | 8% | 6.2

5 compounds drawn at random from the list so far:
SMILES | A1 inh | E coli growth | UCH37 DUB inh | LANA-H2A inh | Beta2AR agonist | Vif TR-FRET | HNF4A DNA FP
O=C(OC(C(=O)NC1CCCC1)c1ccccn1)c1cccs1 (stereo unspecified) | 0.4 | 0.67 | 1.1 | -1.3 | 2 | -4% | 6.1
O=C(NCCc1ccco1)C(=O)NCC1OCCCN1S(=O)(=O)c1ccc(Cl)cc1 (stereo unspecified) | -0.8 | 0.71 | 2.0 | -3.8 | 4 | x | 0.6
COc1cccc2c(=O)c3ccoc3n(C)c12 | -1.1 | 0.66 | -175 | -3.4 | 11 | 15% | 4.2
CCOC(=O)Cc1csc(NC(=O)c2ccc(S(=O)(=O)N(CCOC)CCOC)cc2)n1 | -0.5 | 0.66 | 3.1 | 1.1 | 2 | 8% | 6.2
CN(C)c1ccc(NC(=O)CSc2nc3ccccc3c(=O)n2CC2CCCO2)cc1 (stereo unspecified) | -0.3 | 0.71 | 1.4 | 6.8 | -1 | 2% | 3.6

Further structures.
SMILES | A1 inh | E coli growth | UCH37 DUB inh | LANA-H2A inh | Beta2AR agonist | Vif TR-FRET | HNF4A DNA FP
COc1ccc([N+](=O)[O-])cc1NC(=O)C(C)OC(=O)CSC(C)C(=O)Nc1cc(C)on1 (stereo unspecified) | 0.4 | 0.71 | 8.1 | -0.6 | 9 | 3% | -5.8
CN(CC(=O)Nc1cccc(F)c1)C(=O)CN1C(=O)NC2(CCCCC2)C1=O | 0.3 | 0.69 | 2.1 | -5.1 | -1 | 7% | -1.1
O=C(CN1CCN(C(=O)C2CCN(C(=O)/C=C/c3ccccc3)CC2)CC1)Nc1ccccc1Cl | x | 0.62 | 1.2 | x | 3 | 0% | 1.8
CC(C)Cn1c(N)c(C(=O)COC(=O)/C=C/c2cccs2)c(=O)n(C)c1=O | 0.2 | 0.66 | 0.8 | -1.7 | 0 | 22% | 1.8
N/C(=N\OC(=O)CCc1ccccc1)c1ccc(Br)cc1 | -0.2 | 0.69 | 2.0 | 3.3 | -2 | 0% | -2.6
Cn1c(=O)c2c(nc(SCCN3CCOCC3)n2Cc2ccccc2)n(C)c1=O | 1.1 | 0.74 | 0.7 | 5.5 | -10 | 1% | 0.3
O=C(NCc1ccco1)c1ccc(N2CCCC2=O)cc1 | -0.2 | 0.72 | 1.0 | -0.4 | 2 | 10% | 1.3
CCOc1cc2c(C#N)c(N3CCCC3)nc(N)c2c(N)n1 | 0.1 | 0.7 | -9.5 | -2.7 | -7 | x | 5.4
Cc1c(NC(=O)N(C)c2ccccc2)c(=O)n(-c2ccccc2)n1C | -0.2 | 0.69 | 0.1 | -0.7 | -2 | x | -4.8
COc1cc2c(cc1OC)C(C)N(C(=O)c1cc3ccccc3o1)CC2 (stereo unspecified) | -0.8 | 0.71 | 1.2 | -3.6 | -21 | -2% | 4.2
C[C@@H]1CN([C@H](C)CO)C(=O)c2cc(NS(=O)(=O)c3cn(C)cn3)ccc2O[C@H]1CN(C)C(=O)Nc1ccccc1 | -0.3 | x | 4.1 | 15 | -2 | x | -2.8
CC(C)c1ccc(NC(=O)C2C3C=CC4(O3)C2C(=O)N(CCCN2CCOCC2)C4C(=O)NC2CCCCC2)cc1 (stereo unspecified) | -0.1 | 0.71 | 0.5 | -3.5 | 0 | x | -0.3
COc1ccc(N(C)S(=O)(=O)c2cccc3cccnc23)c(OC)c1 | 1.6 | 0.64 | 2.4 | -1.7 | 8 | 8% | -2.6
O=C(NCCCN1CCCC1=O)NC1CCCCC1 | 0.3 | 0.71 | 1.5 | 6.4 | -3 | 2% | -1.2
O=C(CCn1c(=O)[nH]c2ccsc2c1=O)NCc1ccc(F)cc1 | 0.3 | 0.69 | 1.5 | -2.4 | -7 | -2% | 3.1
O=C(Nc1cccc(Cl)c1Cl)c1ccccc1NC(=O)C1CC=CCC1C(=O)O (stereo unspecified) | 1.4 | 0.69 | -0.1 | 5.4 | 3 | x | 2.2
CCc1ccc(N2CC(C(=O)OCC(=O)NNC(=O)c3ccccc3)CC2=O)cc1 (stereo unspecified) | 0.8 | 0.71 | -1.7 | 2.2 | 1 | 2% | 4.9
CCCN(C(=O)COC(=O)c1nc2nc(C)cc(C)n2n1)C1CCS(=O)(=O)C1 (stereo unspecified) | u | 0.72 | -0.9 | -1.0 | -5 | -2% | 1.6
CCNC(=O)CSc1nc(-c2ccccc2)cs1 | 0.9 | 0.71 | 3.9 | 0.7 | -2 | x | -0.1
